GCN5L2 inh = inhibitors of human GCN5L2 histone acetyltransferase; Q92830; GCN5L2 HAT assay, ThioGlo1 CoA-SH fluorescence; Potency, µM (series often up to 58.9 µM), without a hit: at the highest dose activity change, negative = inhibition, usual class: inhibitors; 390,000 tested, 0.21% active; AID 504327; active means well fitted inhibition curve with a large enough effect; inconclusive means small, poorly fitted or top-dose-only effect, or another doubt; inactive means no such curve, though single readings can be large or run the other way
Target sequence (Q92830 whole entry, looked up): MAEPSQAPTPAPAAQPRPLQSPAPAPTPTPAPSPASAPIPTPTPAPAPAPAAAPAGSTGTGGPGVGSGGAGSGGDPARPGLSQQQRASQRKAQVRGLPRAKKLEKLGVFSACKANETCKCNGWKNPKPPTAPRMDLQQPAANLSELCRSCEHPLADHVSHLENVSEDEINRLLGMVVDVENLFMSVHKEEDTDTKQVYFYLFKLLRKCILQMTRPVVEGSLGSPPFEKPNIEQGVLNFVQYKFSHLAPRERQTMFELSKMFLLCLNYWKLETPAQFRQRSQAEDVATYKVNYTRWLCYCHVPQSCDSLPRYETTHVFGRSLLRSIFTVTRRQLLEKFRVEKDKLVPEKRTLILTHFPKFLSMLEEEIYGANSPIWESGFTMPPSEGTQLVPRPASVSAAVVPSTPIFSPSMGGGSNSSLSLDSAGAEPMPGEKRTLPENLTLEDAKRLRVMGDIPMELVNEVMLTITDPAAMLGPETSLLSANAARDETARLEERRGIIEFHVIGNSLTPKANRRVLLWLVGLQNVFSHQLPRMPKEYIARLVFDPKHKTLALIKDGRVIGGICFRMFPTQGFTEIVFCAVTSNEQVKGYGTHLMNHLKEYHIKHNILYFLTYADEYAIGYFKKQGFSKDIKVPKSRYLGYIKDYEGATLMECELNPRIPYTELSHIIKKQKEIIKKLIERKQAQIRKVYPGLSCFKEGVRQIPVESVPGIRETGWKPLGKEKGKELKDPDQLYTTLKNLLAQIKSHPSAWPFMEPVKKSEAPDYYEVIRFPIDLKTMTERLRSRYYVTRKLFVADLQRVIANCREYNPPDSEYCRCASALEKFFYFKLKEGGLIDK
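Compounds, pin-transferred from DMSO stocks, meet 20nM GCN5L2 for 15 min before the reaction begins with H3(1-25) peptide (75uM) and acetyl-CoA (70uM). Thiol-reactive ThioGlo1 reports CoA release over 20 min at room temperature.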
An asterisk follows results filed as active; ? = inconclusive; & = joins results of further samples; [ ] = remark or other dose. On the % scale 0 is the no-effect control and ±100 the full control effect; potency means the concentration at half of the fitted maximal effect.

SMILES	GCN5L2 inh
COc1ccccc1-c1noc(-c2ccc(N(C)Cc3ccccc3)c([N+](=O)[O-])c2)n1	-6%
c1ccc2c(c1)C(=NCC1CCCO1)NC2=NCC1CCCO1 (centres undefined)	-5%
Cc1ccc(S(=O)(=O)NCCNc2ccc(Br)c(C)c2)cc1	-1%
Cc1nnc(NC(=O)CSc2nnc(NC(=O)C(C)(C)C)s2)s1	2%
CCOC(=O)C1CN(S(=O)(=O)c2ccccc2)CCN1S(=O)(=O)c1ccccc1 (centres undefined)	-12%
Cc1ccccc1NC(=O)COC(=O)C1(C)CC1(Cl)Cl (centres undefined)	-3%
COc1ccc2cc3cc(C(=O)NCc4cccnc4)oc3nc2c1	-3%
CCNC(=O)NC(=O)CSc1cccc(C(F)(F)F)c1	-4%
Cc1nn(C2CCS(=O)(=O)C2)c(Cl)c1/C=C/C(=O)OCC(=O)N(C)C (centres undefined)	-4%
CN(C)S(=O)(=O)c1cccc(NC(=O)CCNC(=O)c2ccccc2Cl)c1	-4%
CCOC(=O)c1cc(OC(=O)c2ccccc2Br)n(-c2ccccc2)n1	1%
CCCCCC1CC(/C(C)=N/NC(N)=O)OC1=O (centres undefined)	-9%
Cc1ccc(C(=O)NNC(=O)c2cccc(S(=O)(=O)N3CCN(c4ccccc4)CC3)c2)cc1	-1%
CC(C)(C)NCC(O)c1cc(O)cc(O)c1 (centres undefined)	-20%&-2%&5%
Fc1ccc(Br)cc1C1C=C(c2ccc(Br)cc2)Nc2ncnn21 (centres undefined)	1%
Cc1sc2nc(N)sc2c1C	2%
Cc1ccc(SCc2nc3ncccn3c2Br)cc1	-3%
COc1ccc(NC(=O)Cn2nnc(C(=O)Nc3ccc(F)c(Cl)c3)c2N)cc1	-10%
Cc1cc(C(=O)OCC(=O)Nc2ncc(C(F)(F)F)cc2Cl)c(C)o1	-2%
COc1ccc(OC)c(S(=O)(=O)Nc2ccc3[nH]c(=O)[nH]c3c2)c1	0%&-1%
CC(C)OP(=O)(OC(C)C)C(Nc1ccccc1)c1ccc2c(c1)OCO2 (centres undefined)	0%
c1ccc(-c2csc(=Nc3cccnc3)n2CC2CCCO2)cc1 (centres undefined)	-1%
CCOC(=O)c1cc(NC(=O)SCC(=O)O)c(C)nc1C	-6%
CC(=O)c1ccc(NC(=S)NC(NC(=O)c2ccco2)C(Cl)(Cl)Cl)cc1 (centres undefined)	1%[0.501 µM]
COc1ccc(CCNC(=O)COc2ccc(S(=O)(=O)N3CCOCC3)cc2C)cc1	0%
COc1ccc(OCc2cc(C(=O)N3CCOCC3)no2)c(Cl)c1	0%
COc1ccc(C(=O)/C=C/N2CCCCC2)cc1OC	-1%
CC1CCN(C(=O)CNC(=O)c2ccc(Br)o2)CC1	-2%
COc1ccc(OCC(=O)Nc2c3c(nn2-c2ccccc2)CS(=O)(=O)C3)cc1	-4%
CCOC(=O)c1cccc(NC(=O)c2ccc(N(C)C)cc2)c1	-8%
O=C(Nc1ccccc1N1CCOCC1)c1ccc2c(c1)OCO2	-3%
Cc1ccc(NC(=O)Cc2nnc(N)s2)cc1	4%
COc1ccccc1OCC(=O)NCCNC(=O)COc1ccccc1OC	0%
O=C(NCC1CCCO1)c1ccccn1 (centres undefined)	-6%
COCCn1nnnc1C(C(C)C)N1CCOCC1 (centres undefined)	2%
FC(F)Oc1ccc(NC(=S)NCC2COc3ccccc3O2)cc1 (centres undefined)	-4%
COC(=O)c1ccc(Cn2nnc3sc4c(c3c2=O)CCCC4)cc1	-7%
Cc1cc(C)n(C(=O)CNc2cccc(Cl)c2C)n1	2%
CCOC(=O)c1c(C)[nH]c(C)c1S(=O)(=O)N1CCC(C(=O)Nc2ccc(C)c(Cl)c2)CC1	11%
Cc1ccc(/C=C2/Sc3ccc(C(=O)N4CCN(c5ccccn5)CC4)cc3NC2=O)cc1	-4%
Cc1nc(-c2cccc(F)c2)sc1CCNC(=O)C(=O)Nc1ccc2c(c1)OCCO2	-6%
CCOc1ccc(-c2c(C(=O)N/N=C/c3cccs3)nnn2-c2nonc2N)cc1	-11%
Cc1cccc(NC(NC(=O)c2cccnc2)C(Cl)(Cl)Cl)c1 (centres undefined)	-25%
CCN(C(=O)CSc1nnc(SC(C)C)s1)C1CCS(=O)(=O)C1 (centres undefined)	-10%
C[C@]12CC(O)C3C(CCC4=CC(=O)CC[C@@]43C)C1CCC2c1csc(-c2ccccc2)n1 (some centres undefined)	-9%
O=C(COc1ccc(F)cc1Br)NCC1COc2ccccc2O1 (centres undefined)	-11%
COc1ccc(C2CC(c3ccc(Cl)cc3)=NN2C(=O)c2cccc([N+](=O)[O-])c2)cc1 (centres undefined)	-3%
O=C(CSc1nc(O)cc(=O)[nH]1)N1CCCc2ccccc21	-7%
COc1ccc(NC(=O)c2cn(-c3ccccc3)nc2-c2ccncc2)cc1	-1%
CCn1nc(C)c(NC(=O)c2cc(Br)ccc2Cl)c1C	1%
COc1cc(NC(=O)c2cc(S(=O)(=O)N3CCc4ccccc43)cn2C)cc(OC)c1OC	-10%&-6%
O=C(c1cccc(S(=O)(=O)N2CCCC2)c1)N1CCN(Cc2ccccc2)CC1	-5%
Cc1ccc(CCNC(=O)c2ccc(CNS(=O)(=O)c3ccc(C)cc3)cc2)cc1	-1%
O=C1CCCN1CN1CCCCC1	-7%
CC(=O)Nc1ccc(SCC(=O)Nc2ccccc2Oc2ccccc2)cc1	1%
Cc1ccc(C(=O)O/N=C/c2c(C(F)(F)F)nn(C)c2Sc2ccc(Cl)cc2)cc1	-1%
O=C(c1cn(CC(=O)N2CCCC2)c2ccccc12)C1CCCCC1	-3%
O=C(c1cc(F)ccc1F)C1CCCN(C(=O)c2ccc3nccnc3c2)C1 (centres undefined)	14%
COc1ccc(C(=O)COC(=O)c2cc(=O)[nH]c3ccccc23)c(OC)c1	-8%
Cc1ccc(NC(=O)c2ccc(=O)n(CC(=O)Nc3cccc(C)c3)n2)cc1	7%

Not a retest: entries from further up.
SMILES	GCN5L2 inh
Cc1nc(-c2cccc(F)c2)sc1CCNC(=O)C(=O)Nc1ccc2c(c1)OCCO2	-6%
CCOc1ccc(-c2c(C(=O)N/N=C/c3cccs3)nnn2-c2nonc2N)cc1	-11%
Cc1cccc(NC(NC(=O)c2cccnc2)C(Cl)(Cl)Cl)c1 (centres undefined)	-25%
CCN(C(=O)CSc1nnc(SC(C)C)s1)C1CCS(=O)(=O)C1 (centres undefined)	-10%
C[C@]12CC(O)C3C(CCC4=CC(=O)CC[C@@]43C)C1CCC2c1csc(-c2ccccc2)n1 (some centres undefined)	-9%
O=C(COc1ccc(F)cc1Br)NCC1COc2ccccc2O1 (centres undefined)	-11%
COc1ccc(C2CC(c3ccc(Cl)cc3)=NN2C(=O)c2cccc([N+](=O)[O-])c2)cc1 (centres undefined)	-3%
O=C(CSc1nc(O)cc(=O)[nH]1)N1CCCc2ccccc21	-7%
COc1ccc(NC(=O)c2cn(-c3ccccc3)nc2-c2ccncc2)cc1	-1%
CCn1nc(C)c(NC(=O)c2cc(Br)ccc2Cl)c1C	1%
COc1cc(NC(=O)c2cc(S(=O)(=O)N3CCc4ccccc43)cn2C)cc(OC)c1OC	-10%&-6%
O=C(c1cccc(S(=O)(=O)N2CCCC2)c1)N1CCN(Cc2ccccc2)CC1	-5%
Cc1ccc(CCNC(=O)c2ccc(CNS(=O)(=O)c3ccc(C)cc3)cc2)cc1	-1%
O=C1CCCN1CN1CCCCC1	-7%
CC(=O)Nc1ccc(SCC(=O)Nc2ccccc2Oc2ccccc2)cc1	1%
Cc1ccc(C(=O)O/N=C/c2c(C(F)(F)F)nn(C)c2Sc2ccc(Cl)cc2)cc1	-1%
O=C(c1cn(CC(=O)N2CCCC2)c2ccccc12)C1CCCCC1	-3%

Arranged by value in GCN5L2 inh (rising): 3 from the list above
Molecule,GCN5L2 inh
COc1ccccc1-c1noc(-c2ccc(N(C)Cc3ccccc3)c([N+](=O)[O-])c2)n1,-6%
Cc1ccc(CCNC(=O)c2ccc(CNS(=O)(=O)c3ccc(C)cc3)cc2)cc1,-1%
CC(C)OP(=O)(OC(C)C)C(Nc1ccccc1)c1ccc2c(c1)OCO2 (centres undefined),0%

Carrying on:
SMILES	GCN5L2 inh
CS(=O)(=O)N1CCN(c2c(Cl)cccc2[N+](=O)[O-])CC1	0%
Cc1ccc(NC(=O)CN(C)Cc2nc3c(Br)cc(Br)cc3c(=O)[nH]2)cc1	-15%
COc1ccc(NC(=O)CCc2nc3ccccc3[nH]2)cc1	-3%
c1ccc(CSc2ccc(-c3ccc4c(c3)OCO4)nn2)cc1	-2%
CCOc1ccc(C(=O)Nc2ccc3nc(SCCOc4ccccc4)sc3c2)cc1	-17%
COc1ccc(C(=O)NOCc2ccccc2)cc1	-8%
c1ccc(CC2CCN(Cc3ccccn3)CC2)cc1	-5%
CC(=O)Nc1ccc(NS(=O)(=O)c2c(C)nc3sccn3c2=O)cc1	-9%
Cc1cccc(NC(=O)C2CCN(S(=O)(=O)c3cccc4nsnc34)CC2)n1	?
Cc1ccc(S(=O)(=O)NC(C)(C)CSc2nncn2C)cc1	-1%
Cc1ccc(CS(=O)(=O)c2ncc(Cl)c(C(=O)Nc3nnc(C)s3)n2)cc1	-4%
O=C(COc1ccc(F)cc1)NC1CC1	-1%
O=C(c1cccc([N+](=O)[O-])c1)N1CCOCC1	-2%
Oc1c(C(c2cccs2)N2CCOCC2)sc2ncnn12 (centres undefined)	0%
O=C(c1ccc2c(c1)N(Cc1ccc(Cl)cc1)C(=O)c1ccccc1S2(=O)=O)N1CCOCC1	-7%
NCC(c1ccccc1)c1c[nH]c2ccccc12 (centres undefined)	-11%
CCOC(=O)N1CCN(c2ccccc2OC)CC1	3%
CC(C)(C)C(=O)Nc1ccc(-c2csnn2)cc1	-5%
CC1CCCN(S(=O)(=O)c2cc(C(=O)NCCc3ccccc3)n(C)c2)C1 (centres undefined)	5%
CCc1ccc(CN(C)Cc2nc(Cc3ccccc3)no2)nc1	0%
O=C(NC1CCCCC1)N(CCN1CCCC1)Cc1cc2cc3c(cc2[nH]c1=O)OCCO3	1%
CS(=O)(=O)N(CC(=O)Nc1ccc(S(=O)(=O)N2CCCC2)cc1)c1ccccc1	2%
COc1ccc2c(C(F)(F)F)cc(=O)oc2c1C	-1%
Cc1cc(NC(=O)CN2C(=O)NC3(CCCCC3C)C2=O)no1 (centres undefined)	-6%
CCOC(=O)c1c(S(=O)(=O)N2CCN(c3ccc(C(C)=O)cc3)CC2)c(C)n(C)c1C	-6%
O=C(/C=C/c1cccc(F)c1)Nc1cc(S(=O)(=O)N2CCOCC2)ccc1Cl	-7%
Cc1ccc(NC(=O)CSc2ccc(-c3cccs3)nn2)cc1Cl	-5%
O=C(O)CCCC(=O)NCCCc1ccccc1	-5%
COc1ccccc1NC(=O)c1ccc2c(c1)OCO2	1%
Cc1ccc2nc(SCC(=O)c3ccc(Cl)s3)[nH]c2c1	-4%
CCN1CCN(C(=O)c2ccccc2N(C)S(=O)(=O)c2ccc(C)cc2)CC1	-1%
CCN1CCCC1CNCc1ccccc1OCc1ccc(F)cc1 (centres undefined)	-6%
COc1ccc2c(CC(=O)Nc3ccccc3N3CCOCC3)coc2c1	-23%
CC[C@]1(c2ccccc2OC)ON(c2ccccc2C(F)(F)F)C1=O	-6%
Cc1ccc(NC(=S)N(CCCN2CCCC2)Cc2cccn2Cc2ccc(Cl)cc2)cc1	-4%
Cc1ccc2nc(NC(=O)c3ccc(S(=O)(=O)N4CCCc5ccccc54)cc3)sc2c1	-17%&1%
CCOc1ccc(NC(=O)COC(=O)C2C3CC4OC(=O)C2C4C3)cc1 (centres undefined)	-10%
CC(C)C12CCC(C(=O)O)C(C1)C(=O)O2 (centres undefined)	-9%
O=C(C(c1ccccc1)c1ccccc1)N1CCN(Cc2ccc(Br)cc2)CC1	-13%
O=C(CC1NCCNC1=O)OCCCc1ccccc1 (centres undefined)	-4%
COc1ccc(-n2nnc3c(SCc4ccccc4)ncnc32)cc1	-1%
Cc1cc2oc(C(=O)Nc3ccc(S(=O)(=O)N4CCCCCC4)cc3)cc(=O)c2cc1C	-4%
Cn1c(CN2CCCC(C(=O)c3ccc4c(c3)OCO4)C2)nc2ccccc21 (centres undefined)	2%
COc1cccc(C(=O)NCCCN2CCN(CCCNC(=O)c3cccc(OC)c3)CC2)c1	3%
O=C(CCc1ccccc1)Nc1cc(C(=O)O)cc(C(=O)O)c1	-3%
FC(F)(F)c1nc(Sc2ncccc2C(F)(F)F)n[nH]1	-10%
CCN(CC)CCC(c1cc(OC)c(OC)c(OC)c1)c1c(OC)cc(OC)c2c(-c3ccccc3)cc(=O)oc12 (centres undefined)	4%
Cc1ccc(NNC(=O)C(=O)N2CCCCC2)cc1	-7%
Cc1cc(-c2nc(C)c(-c3nnc(SCC(=O)Nc4ccc(Cl)cc4)n3C)s2)no1	-4%
Cc1cc(NC(=O)CCl)n(-c2nc3ccccc3s2)n1	2%
CCc1ccc(N2C(=O)C3NN=C(C(=O)OCc4ccccc4)C3C2=O)cc1 (centres undefined)	1%
Cc1ccc(S(=O)(=O)NC2=NCN(CCc3ccccc3)CN2)cc1	-11%
CCCC(=O)C1=C(O)C(C(=O)OC)C(C)(C)CC1=Nc1ccc(C)cc1 (centres undefined)	2%
Cc1cccc2sc(NC(=O)CN3C(=O)C4CC=CCC4C3=O)nc12 (centres undefined)	-10%
O=P1(O)C=C(c2ccccc2)OC(c2ccccc2)=C1	-2%
Cc1cc(C)nc(N(C#N)C(C)C(=O)N(C)C)n1 (centres undefined)	0%
Cc1nc(Cl)c(C(=O)NCc2ccccc2)c(C)c1Cl	-6%
CC(=O)c1sc(NC(=O)c2ccc(C(C)(C)C)cc2)nc1C	10%
Clc1ccc(Nc2nc3ccccc3n3nnnc23)cc1	-5%
Cc1n[nH]c(C)c1S(=O)(=O)N1CCCC(C(=O)O)C1 (centres undefined)	0%
COCCCNC(=O)c1ccc(C)c(-n2c(C)nc3cccnc32)c1	3%
Cn1c(=O)n(C)c2cc(C(=O)Nc3ccc4c(c3)OCO4)ccc21	-1%

Only part of the results is shown, and most or all hits are left out here.
